KCNQ2 enhance: KCNQ2 (rat) channel potentiation; 0.54% of 310,000 active; O88943; AID 2239; CHO-K1 KCNQ2, FluxOR thallium flux fluorescence; stronger effect = higher value; B-score at 10 µM;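 active = fluorescence ratio B-score at least 3 SD of library B-scores, with initial fluorescence B-score within 3 SD, cut at about 5.3 in these data; same plate scores as AID 2156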;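 note: B-score of peak minus minimum over baseline fluorescence ratio after K+ and Tl+ stimulus; positive B-score means potentiation of KCNQ2 with more thallium influx and brighter signal; only the inactives scoring about 0 or higher are listed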
Target sequence (O88943 whole entry, looked up): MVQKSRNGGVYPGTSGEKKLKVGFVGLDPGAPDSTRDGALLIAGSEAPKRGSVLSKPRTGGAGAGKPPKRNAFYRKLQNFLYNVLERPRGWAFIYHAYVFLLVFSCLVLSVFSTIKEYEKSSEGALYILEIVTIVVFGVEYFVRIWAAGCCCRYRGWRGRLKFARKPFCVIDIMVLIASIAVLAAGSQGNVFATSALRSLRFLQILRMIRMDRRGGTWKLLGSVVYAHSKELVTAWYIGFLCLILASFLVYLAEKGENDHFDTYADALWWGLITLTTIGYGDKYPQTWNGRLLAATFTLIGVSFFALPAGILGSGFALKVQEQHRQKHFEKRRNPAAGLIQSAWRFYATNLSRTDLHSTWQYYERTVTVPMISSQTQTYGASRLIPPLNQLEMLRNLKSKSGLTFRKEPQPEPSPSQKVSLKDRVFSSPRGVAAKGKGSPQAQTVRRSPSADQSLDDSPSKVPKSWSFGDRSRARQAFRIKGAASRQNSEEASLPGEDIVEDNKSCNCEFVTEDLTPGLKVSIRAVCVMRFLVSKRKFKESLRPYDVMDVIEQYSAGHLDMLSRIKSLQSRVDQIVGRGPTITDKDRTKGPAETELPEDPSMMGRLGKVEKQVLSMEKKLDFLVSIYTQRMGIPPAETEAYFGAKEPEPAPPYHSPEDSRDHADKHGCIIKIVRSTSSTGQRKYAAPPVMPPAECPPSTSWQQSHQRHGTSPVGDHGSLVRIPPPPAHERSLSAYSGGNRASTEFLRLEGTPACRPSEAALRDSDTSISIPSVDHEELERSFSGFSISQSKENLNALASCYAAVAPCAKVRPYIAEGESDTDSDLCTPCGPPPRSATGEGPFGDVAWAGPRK
KCNQ2 enhance baseline: further read-out of KCNQ2 enhance, marked with its call; B-score; compound at 10 µM; measured here: initial fluorescence intensity artifact check;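 brightness before thallium and not channel activity; 0 = typical well and far values either way flag optical interference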
Active calls of the source: *.

How did Cc1cccc(C)c1NC(=O)C(C)N1CCCCC1 (configuration not stated) do in these assays?
KCNQ2 enhance: 0.04; KCNQ2 enhance baseline: 1.1

How did Cc1sc(NC(=O)c2ccco2)c(C(c2cccnc2)N2CCN(CCO)CC2)c1C (configuration not stated) do in these assays?
KCNQ2 enhance: 1.1; KCNQ2 enhance baseline: 2

What do the screens show for `O=C(Nc1nnc(Cc2ccccc2F)s1)c1ccccc1Cl`?
KCNQ2 enhance: 1; KCNQ2 enhance baseline: 0.2

Results for COc1ccc(OC)c(CC(=O)Nc2ccc3c(c2)CCC3)c1 ?
KCNQ2 enhance: 0.23; KCNQ2 enhance baseline: -0.01

Results for CN1CCN(C(=S)NC(=O)c2ccccc2Cl)CC1 ?
KCNQ2 enhance: 0.44; KCNQ2 enhance baseline: 0

What do the screens show for `O=C1C(=O)c2ccc(-c3ccccc3)cc2-c2ccccc21`?
KCNQ2 enhance: 1.4; KCNQ2 enhance baseline: 1.4

Results for O=C(NCCC1CC1(Cl)Cl)Nc1ccccc1 (configuration not stated) ?
KCNQ2 enhance: 1.5; KCNQ2 enhance baseline: -0.11

How did Cc1ccccc1OCCC(=O)OCC(=O)N(C)c1c(N)n(Cc2ccccc2)c(=O)[nH]c1=O do in these assays?
KCNQ2 enhance: 1.5; KCNQ2 enhance baseline: 0.27

How did NS(=O)(=O)c1ccc(CNC(=O)NC2(c3ccccc3)CC2)cc1 do in these assays?
KCNQ2 enhance: 1.2; KCNQ2 enhance baseline: -0.56

What do the screens show for `Cc1ccc(N(CC(O)CN2CCOCC2)S(=O)(=O)c2ccc3ccccc3c2)cc1` (configuration not stated)?
KCNQ2 enhance: 0.15; KCNQ2 enhance baseline: 0.7

How did COc1ccc(NC(=O)CCC(=O)c2cccs2)cc1Cl do in these assays?
KCNQ2 enhance: 2.6; KCNQ2 enhance baseline: -0.65

How did Cn1c(CSc2ncccn2)nnc1SCC(=O)N1CCCCC1 do in these assays?
KCNQ2 enhance: 1; KCNQ2 enhance baseline: 1.3

What do the screens show for `CCOC(=O)/C=C1/N(C)c2ccccc2C1(C)C`?
KCNQ2 enhance: 1.9; KCNQ2 enhance baseline: -0.84

How did COc1ccccc1C(=O)Nc1ccccc1C(=O)Nc1ccccc1 do in these assays?
KCNQ2 enhance: 0.41; KCNQ2 enhance baseline: 0.98

Results for CN=c1scc(-c2cccs2)n1/N=C/c1ccc(O)c(O)c1O ?
KCNQ2 enhance: 2; KCNQ2 enhance baseline: -0.97

Results for CCCCCCNc1cc(C)oc(=O)c1C(C)=O ?
KCNQ2 enhance: 0.03; KCNQ2 enhance baseline: 0.12

How did CCCCC(=O)Nc1cnc(NC(=O)c2cccs2)cc1C do in these assays?
KCNQ2 enhance: 0.26; KCNQ2 enhance baseline: 0

How did COc1ccc(Cl)cc1C(=O)NNC(=S)NC1CCCC1 do in these assays?
KCNQ2 enhance: 1; KCNQ2 enhance baseline: -0.22

What do the screens show for `CC(C)C[C@H](NC(=O)C1CCN(C(=O)[C@H](Cc2ccccc2)NC(=O)OC(C)(C)C)CC1)C(=O)O`?
KCNQ2 enhance: 0.07; KCNQ2 enhance baseline: 0.78

How did O=C(Cc1c(O)c2ccccc2[nH]c1=O)NCc1ccccc1 do in these assays?
KCNQ2 enhance: 0.1; KCNQ2 enhance baseline: -1.3

Results for CC(=O)c1cccc(N(C(=O)Cn2nnc3ccccc32)C(C(=O)NCC2CCCO2)c2ccc(N3CCOCC3)cc2)c1 (configuration not stated) ?
KCNQ2 enhance: 0.36; KCNQ2 enhance baseline: 0.19

How did Cc1ccsc1/C=N/n1c(-c2ccco2)n[nH]c1=S do in these assays?
KCNQ2 enhance: 0.94; KCNQ2 enhance baseline: -0.59

Results for Cc1cc(N2CCN(c3ccccc3)CC2)nc(N2CCOCC2)n1 ?
KCNQ2 enhance: 2; KCNQ2 enhance baseline: -0.68

Results for C/C(=N\NC(=O)c1ccc(C)cc1)c1c(C)[nH]n(-c2ccccc2)c1=O ?
KCNQ2 enhance: 0.35; KCNQ2 enhance baseline: -0.2

Retrieved one by one from above (2):
Results for C/C(=N\NC(=O)c1ccc(C)cc1)c1c(C)[nH]n(-c2ccccc2)c1=O ?
KCNQ2 enhance: 0.35; KCNQ2 enhance baseline: -0.2

How did COc1ccccc1C(=O)Nc1ccccc1C(=O)Nc1ccccc1 do in these assays?
KCNQ2 enhance: 0.41; KCNQ2 enhance baseline: 0.98

The listing picks up; the 4 compounds before the break are reprinted first.
Results for CC(=O)c1cccc(N(C(=O)Cn2nnc3ccccc32)C(C(=O)NCC2CCCO2)c2ccc(N3CCOCC3)cc2)c1 (configuration not stated) ?
KCNQ2 enhance: 0.36; KCNQ2 enhance baseline: 0.19

How did Cc1ccsc1/C=N/n1c(-c2ccco2)n[nH]c1=S do in these assays?
KCNQ2 enhance: 0.94; KCNQ2 enhance baseline: -0.59

Results for Cc1cc(N2CCN(c3ccccc3)CC2)nc(N2CCOCC2)n1 ?
KCNQ2 enhance: 2; KCNQ2 enhance baseline: -0.68

Results for C/C(=N\NC(=O)c1ccc(C)cc1)c1c(C)[nH]n(-c2ccccc2)c1=O ?
KCNQ2 enhance: 0.35; KCNQ2 enhance baseline: -0.2

Results for Cc1nc(C)c(-c2nnc(-c3ccccc3Cl)o2)cc1C(=O)NN ?
KCNQ2 enhance: 0.4; KCNQ2 enhance baseline: -0.02

How did CC(=O)NCCNC(=O)c1ccc(CSc2nc3ccccc3s2)cc1 do in these assays?
KCNQ2 enhance: 1; KCNQ2 enhance baseline: -0.89

How did N#Cc1ccccc1S(=O)(=O)c1ccccc1C(=O)Nc1ccccc1 do in these assays?
KCNQ2 enhance: 0.05; KCNQ2 enhance baseline: -0.21

Results for Cc1ccccc1Cc1ccc(Cl)nn1 ?
KCNQ2 enhance: 0.14; KCNQ2 enhance baseline: -2.6

Results for COc1ccc(/C=N/OCC(=O)NCC(C)C)c(OC)c1 ?
KCNQ2 enhance: 2.1; KCNQ2 enhance baseline: -1.3

Results for CCc1cccc(CC)c1N(COC)C(=O)Cn1nnc2ccccc21 ?
KCNQ2 enhance: 0.02; KCNQ2 enhance baseline: 0.02

How did Cc1ccc(NC(=O)CN(C)C(=O)c2ccc(COc3ccccc3)cc2)cc1 do in these assays?
KCNQ2 enhance: 1.3; KCNQ2 enhance baseline: -0.5

What do the screens show for `Cc1ncc([N+](=O)[O-])n1Cc1cccc2ccccc12`?
KCNQ2 enhance: 1.6; KCNQ2 enhance baseline: -1

Results for CCCCn1c(=O)[nH]c(=O)c2c1nc(-c1ccncc1)n2CCOC ?
KCNQ2 enhance: 0.49; KCNQ2 enhance baseline: -1.8

How did O=C(Nc1ccccc1)N1CCCC1 do in these assays?
KCNQ2 enhance: 0.49; KCNQ2 enhance baseline: -0.44

What do the screens show for `CCn1c(NC(=O)Nc2ccccc2OC)nc2ccccc21`?
KCNQ2 enhance: 0.99; KCNQ2 enhance baseline: -0.52

How did O=C(NC1CC1)C1CCCN1C(=O)NC1CCCCC1 (configuration not stated) do in these assays?
KCNQ2 enhance: 0.43; KCNQ2 enhance baseline: -0.64

What do the screens show for `COc1ccc(NC(=O)CSc2nccn2Cc2ccco2)cc1`?
KCNQ2 enhance: 0.03; KCNQ2 enhance baseline: -1

Results for CC(Oc1ccc2c(c1)oc(=O)c1ccccc12)C(=O)NCCCN1CCOCC1 (configuration not stated) ?
KCNQ2 enhance: 0.01; KCNQ2 enhance baseline: -2.3

How did Cc1nc2ccc(-n3ccc(=O)cc3)cc2s1 do in these assays?
KCNQ2 enhance: 0.17; KCNQ2 enhance baseline: -0.02

What do the screens show for `Cc1ccc(S(=O)(=O)N(C)CCCC(=O)NCc2ccc3c(c2)OCO3)cc1`?
KCNQ2 enhance: 1.7; KCNQ2 enhance baseline: 0.33

Results for CC1(C)CC(=O)C2=C(C1)OC(N)=C(C#N)C21CCN(C(=O)OCc2ccccc2)CC1 ?
KCNQ2 enhance: 0.02; KCNQ2 enhance baseline: -0.23

How did CC1CCN(C(=O)COC(=O)CCc2c[nH]c3ccccc23)CC1 do in these assays?
KCNQ2 enhance: 0.03; KCNQ2 enhance baseline: -0.32

How did Cc1ccc(OCC(=O)Nc2nnc(S(=O)(=O)N3CCCCCC3)s2)cc1C do in these assays?
KCNQ2 enhance: 1.7; KCNQ2 enhance baseline: -0.6

Results for Cc1ccc(C23OC(=O)C(C)(C)C2OC(=O)C3(C)C)cc1 (configuration not stated) ?
KCNQ2 enhance: 0.31; KCNQ2 enhance baseline: -0.31

What do the screens show for `NC(=O)C1CCN(C(=O)/C=C/c2cccc(Br)c2)CC1`?
KCNQ2 enhance: 1.1; KCNQ2 enhance baseline: -0.51

What do the screens show for `CC(C)(C)OC(=O)C(Cl)(C(=O)OC(C)(C)C)c1ccc2nnnn2n1`?
KCNQ2 enhance: 3.3; KCNQ2 enhance baseline: 1.3

How did O=C(NCc1cc(C(F)(F)F)cc(C(F)(F)F)c1)C1CC(c2ccccc2C(F)(F)F)=NO1 (configuration not stated) do in these assays?
KCNQ2 enhance: 0.84; KCNQ2 enhance baseline: -0.04

Results for CC(C)(C)n1nnnc1C(c1ccccc1F)N1CCN(C(=O)c2ccco2)CC1 (configuration not stated) ?
KCNQ2 enhance: 0.47; KCNQ2 enhance baseline: 0.22

How did O=C(Nc1ccccc1)c1nn(-c2ccccc2)c(=O)cc1C(F)(F)F do in these assays?
KCNQ2 enhance: 0.59; KCNQ2 enhance baseline: -2.4

Results for CC1CCCCC1NC(=O)CCS(=O)(=O)c1ccc2c(c1)NC(=O)CS2 (configuration not stated) ?
KCNQ2 enhance: 0.19; KCNQ2 enhance baseline: 0.24

Results for NC(=O)c1ccc(NC(=O)CCc2nc3sc4c(c3c(=O)[nH]2)CCCC4)cc1 ?
KCNQ2 enhance: 0.73; KCNQ2 enhance baseline: 0.65

How did Cc1c(NC(=O)CC2CC(C)OC2=O)c(=O)n(-c2ccccc2)n1C (configuration not stated) do in these assays?
KCNQ2 enhance: 0.37; KCNQ2 enhance baseline: 0.26

What do the screens show for `CCC(O)CNC(=O)CCc1nnc(C2(c3ccc(Cl)cc3)CCC2)o1` (configuration not stated)?
KCNQ2 enhance: 2.2; KCNQ2 enhance baseline: 0.6

What do the screens show for `O=S(CC(O)COCc1ccc(Cl)cc1)c1ccccn1` (configuration not stated)?
KCNQ2 enhance: 0.01; KCNQ2 enhance baseline: 0

What do the screens show for `O=C(NC1CCN(Cc2ccccc2)CC1)C1CCN(S(=O)(=O)c2cccc([N+](=O)[O-])c2)CC1`?
KCNQ2 enhance: 0.36; KCNQ2 enhance baseline: 1.4

What do the screens show for `COc1ccccc1CNC(=O)CCS(=O)(=O)c1cccc2nonc12`?
KCNQ2 enhance: 1.6; KCNQ2 enhance baseline: 1.6

Results for CCOC(=O)N1CCN(C(=O)CSc2nc3c(c(=O)n2-c2ccccc2OC)SCC3)CC1 ?
KCNQ2 enhance: 0.45; KCNQ2 enhance baseline: 0.75

How did CC(C)(C)NC(=O)c1ccc(NC(=O)C2COc3ccccc3O2)cc1 (configuration not stated) do in these assays?
KCNQ2 enhance: 0.75; KCNQ2 enhance baseline: -1.2

What do the screens show for `NC(=O)CCCn1c(C(=O)c2cc(Cl)c(N)c(Cl)c2)c2ccc(C(F)(F)F)cc2[n+]1[O-]`?
KCNQ2 enhance: 0.11; KCNQ2 enhance baseline: -0.05

What do the screens show for `O=C(N/N=C/c1cccnc1)c1cc(-c2ccccc2)nc2ccccc12`?
KCNQ2 enhance: 0.2; KCNQ2 enhance baseline: -0.48

Results for CC(C)c1nnc(NC(=O)CCC(=O)N2CCN(C3CCCCC3)CC2)s1 ?
KCNQ2 enhance: 1.6; KCNQ2 enhance baseline: -1.4

How did O=C(CSc1ccccc1F)NC(=O)NCc1ccco1 do in these assays?
KCNQ2 enhance: 1.6; KCNQ2 enhance baseline: 0.4

What do the screens show for `CCOC(=O)c1ccc(NC(=O)NCc2ccccn2)cc1`?
KCNQ2 enhance: 0.67; KCNQ2 enhance baseline: -0.14

How did CCOc1ccc(NC(=O)c2ccco2)c([N+](=O)[O-])c1 do in these assays?
KCNQ2 enhance: 0.16; KCNQ2 enhance baseline: 1.1

What do the screens show for `COCCCNC(NC(=O)c1ccc(OC)cc1)C(Cl)(Cl)Cl` (configuration not stated)?
KCNQ2 enhance: 1.3; KCNQ2 enhance baseline: -3

How did O=C(NCc1ccccc1)c1cc(=O)[nH]c2ccccc12 do in these assays?
KCNQ2 enhance: 0.91; KCNQ2 enhance baseline: -0.87

How did Cc1cc(C)n(-c2ccc(S(=O)(=O)N3CCOCC3)cc2[N+](=O)[O-])n1 do in these assays?
KCNQ2 enhance: 0.88; KCNQ2 enhance baseline: -0.86

Results for O=C(Nc1ccccc1C(=O)N1CCN(c2cccc(Cl)c2)CC1)C1=CSCCO1 ?
KCNQ2 enhance: 0.07; KCNQ2 enhance baseline: 0.03

How did COC(=O)CCC(=O)Nc1ccc(Br)cc1 do in these assays?
KCNQ2 enhance: 0.02; KCNQ2 enhance baseline: 0.48

How did CC1Cc2nc(SCC(=O)NCc3ccccc3)n(Cc3ccccc3)c(=O)c2S1 (configuration not stated) do in these assays?
KCNQ2 enhance: 0.01; KCNQ2 enhance baseline: 2.1

What do the screens show for `CCn1c(SCC(=O)NCc2ccco2)nc2ccccc2c1=O`?
KCNQ2 enhance: 0.44; KCNQ2 enhance baseline: -0.29

Results for CCn1c(SCC(=O)NCc2ccco2)nnc1C(C)C ?
KCNQ2 enhance: 0.79; KCNQ2 enhance baseline: 0.89

How did O=C(CC1SC(=O)NC1=O)Oc1ccc(/C=N/NC(=O)c2ccccc2O)cc1 (configuration not stated) do in these assays?
KCNQ2 enhance: 0.22; KCNQ2 enhance baseline: 0.21

Results for COc1ccc(NC(=O)c2cc(C)on2)cc1OC ?
KCNQ2 enhance: 0.41; KCNQ2 enhance baseline: -0.21

High-throughput results from PubChem.

A portion of the library; the hit share may differ from the screen's.
